# Screening data deposited in PubChem BioAssay by several laboratories.
# RecA intein inh: Mtb RecA intein splicing inhibitors, primary screen, biochemical, fluorescence, HTS | Protein RecA (Mycobacterium tuberculosis (strain ATCC 25618 / H37Rv)), P9WHJ3 | cell-free RecA intein splicing | inhibition, %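 (about 9 µM by stock and volumes)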 | 290,000 compounds, 0.75% hits | AID 2221, 2009; in the data active = inhibition above about 30%; inconclusive = no clear call, values can overlap the other calls;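 also: 0% = vehicle wells and 100% = reference inhibitor control wells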
# Target sequence (P9WHJ3 whole entry, looked up): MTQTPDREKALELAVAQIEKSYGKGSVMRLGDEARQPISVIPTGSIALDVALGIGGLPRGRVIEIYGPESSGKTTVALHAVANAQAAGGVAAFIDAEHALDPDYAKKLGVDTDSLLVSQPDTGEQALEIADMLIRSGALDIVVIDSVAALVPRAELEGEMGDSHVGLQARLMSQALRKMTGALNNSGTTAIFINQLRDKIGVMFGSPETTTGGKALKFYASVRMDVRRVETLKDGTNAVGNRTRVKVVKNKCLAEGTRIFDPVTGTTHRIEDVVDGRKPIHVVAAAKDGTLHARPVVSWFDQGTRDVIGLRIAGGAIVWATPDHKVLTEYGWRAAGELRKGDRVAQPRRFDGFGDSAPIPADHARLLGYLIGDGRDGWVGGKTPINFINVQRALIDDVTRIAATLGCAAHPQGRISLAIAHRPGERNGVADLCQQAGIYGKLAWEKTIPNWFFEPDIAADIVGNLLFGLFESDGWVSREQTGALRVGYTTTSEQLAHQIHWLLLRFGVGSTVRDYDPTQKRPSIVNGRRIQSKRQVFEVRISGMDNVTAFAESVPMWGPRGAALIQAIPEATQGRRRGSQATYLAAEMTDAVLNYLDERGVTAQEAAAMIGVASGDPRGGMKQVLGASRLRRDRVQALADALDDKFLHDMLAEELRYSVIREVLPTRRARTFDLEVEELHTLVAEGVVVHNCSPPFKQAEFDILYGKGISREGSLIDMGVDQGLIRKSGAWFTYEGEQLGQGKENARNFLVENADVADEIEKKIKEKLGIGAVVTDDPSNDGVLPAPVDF
# Arbovirus anti: antivirals against arbovirus infection, primary screen, cell-based, full library, 10K replicate subset. arbovirus infection cell-based antiviral screen. inhibition, % at 10 µM. 200,000 compounds, 0.37% hits. AID 1251, 2008;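 active = inhibition from about 30%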;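 also: bluetongue infection of BSR cells; cell survival read as ATP light after 72 h; 0% = infected wells without compound and 100% = uninfected wells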
# Mtb betalactam: beta-lactam sensitization of Mtb H37Rv, H37Rv; M. tuberculosis H37Rv growth with meropenem, percent inhibition; hits of this screen are not shown here; inhibition, % at 25 µM; 330,000 compounds, 0.27% hits;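 active = about 74% or more and at least 40 points above the plate without the antibiotic, then above 30% in a dose series; inconclusive = first-round hits that could not be retested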;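 also: growth measured after seven days incubation then overnight dye step; 0% = bacteria only wells and 100% = bacteria with antibiotic; twin plates without the antibiotic show which effects depend on it; some results filed as inactive read as strong as hits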
# YopH inh: YopH tyrosine phosphatase inhibitors, primary screen, biochemical, fluorescence Ex485/Em525. inhibition, %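 (about 10 µM by stock and volumes)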. YopH tyrosine phosphatase [Yersinia enterocolitica]. 140,000 compounds, 0.16% hits;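 active = inhibition of 50% or more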;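 also: controls were vehicle for no effect and minimum signal wells for full effect; inactives centre near -20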
# Mtb growth: M. tuberculosis H37Rv growth inhibitors, H37Rv strain (AID 1626) | M. tuberculosis H37Rv growth inhibition; higher % means a stronger effect | inhibition, % at 10 µM; hits with a dose series show IC50 in µM | 220,000 compounds, 0.95% hits;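 active = confirmed in a dose series; inconclusive = inhibition above 80% but not taken into the dose series; inactive = below 80% or under 30% at every dose of the series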;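 also: bacteria incubated seven days before Alamar blue readout; 0% = bacteria only wells and 100% = bacteria with antibiotic wells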
# Arbovirus anti repeat: second read-out of Arbovirus anti, no call of its own (marks repeat the call); inhibition, %; measured here: 10K subset replicate screen; many hits read low in the repeat;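 first of two repeat runs on a subset; 0% = infected and 100% = uninfected wells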
# Starred values were filed as active, the others as inactive; ? = inconclusive; . = not tested or not shown; & = joins results of further samples.
SMILES,RecA intein inh,Arbovirus anti,Mtb betalactam,YopH inh,Mtb growth,others
CC(C)(C)C1CCC(=NNc2ncc(C(F)(F)F)cc2Cl)CC1 (stereo not given),-3.3,-20,.,-23,-1%,
Cn1c(NC(=S)Nc2ccccc2)nc2ccccc21,3.6,-6,97,-23,?,
CCCCCSc1cc(OC)c(CCN)cc1OC,-0.1,-30,-7,-24,2%,
COc1ccccc1NC(=O)Cn1c(C)cc(=O)c2cccc(OC)c21,-2.6,.,1,.,-3%,
Cc1ccc(NC(=O)COc2ccccc2[N+](=O)[O-])nc1,1.5,2,-12,.,1%,
COc1ccc(C2c3ccsc3CCN2C(=O)C(C)(C)C)cc1 (stereo not given),7.0,.,-17,.,2%,
CC1=NC2(CCCc3c2no[n+]3[O-])N(O)C1(C)C (stereo not given),-3.9,5,6,-10,-16%,Arbovirus anti repeat=-1
CCCOC(=O)c1ccc(NC(=O)c2nc3nc(C)cc(C)n3n2)cc1,5.0,-4,37,.,33%,
Cc1cc2nc3n(c2cc1C)CC1CC(C(=O)NCC2CC2)N(C)C31 (stereo not given),1.4,.,-7,.,-12%,
CC(=O)Nc1cc(-c2ccc(Cl)cc2)[nH]n1,0.2,-1,-4,.,2%,
CCCC1CCC(C(=O)Nn2cnc3ccccc3c2=O)CC1 (stereo not given),1.0,0,11,-38,-6%,
Cc1ccccc1OCC(=O)Nc1ccc(C(N)=O)cc1,1.1,5,-8,-25,9%,
CCCc1cc(=O)n2[nH]c(NCc3ccc(Cl)cc3Cl)nc2n1,-1.2,-9,3,-43,-7%,
Cc1cc(C(=O)Cn2nc(C(=O)O)c3ccccc3c2=O)c(C)n1-c1ccc(OC(F)F)cc1,1.4,3,41,.,-4%,
O=C(Nc1cccc(C(=O)N2CCN(c3ccccc3)CC2)c1)c1ccco1,1.9,.,-7,.,.,
CC(C)(C)NC(=O)C(c1ccncc1)N(C(=O)CNC(=O)c1ccco1)c1ccc2c(c1)OCO2 (stereo not given),9.2,5,7,-29,-7%,
O=C(COC(=O)c1ccc2c(c1)C(=O)N(Cc1ccncc1)C2=O)Nc1ccccc1[N+](=O)[O-],0.9,3,0,0,-6%,
COc1ccc(NC(=O)CSc2nnc(NC(=O)c3ccc(S(=O)(=O)N4CCOCC4)cc3)s2)cc1,-2.3,6,12,-10,-7%,
CC(=O)Nc1ccccc1-c1nc2ccc(C(=O)N3CCN(c4ccccc4)CC3)cc2[nH]c1=O,1.6,-3,-6,-22,-6%,
Cc1cccc(-n2c(O)c(C=NCc3cccnc3)c(=O)[nH]c2=O)c1C,1.7,4,-9,-30,2%,
Cc1nc(N2CCN(S(=O)(=O)c3ccccc3C#N)CC2)c2c(-c3cccs3)csc2n1,-2.8,0,11,.,4%,
Cc1nnc(NC(=O)c2ccc3ccccc3c2)s1,-0.3,.,-6,.,.,
COc1ccc(CC(=O)Nc2ccccc2NC(=O)c2ccco2)cc1OC,2.4,2,-1,.,5%,
NC(=O)C1CCN(C(=O)CC2(CC(=O)O)CCCCC2)CC1,-4.7,11,-5,.,-2%,
CCNCc1cc(OCC)c(OCC(=O)NCCc2ccccc2)cc1Cl,.,1,8,-44,0%,
O=C(CSc1cccc[n+]1[O-])NN(c1ccccc1)c1ccccc1,-1.1,.,3,.,-8%,
CSc1ccc(NC(=O)CC(C)=O)cc1,-3.3,3,39,-39,0%,
Cc1c(NS(=O)(=O)c2ccccc2)c(=O)n(-c2ccccc2)n1C,.,4,-3,-22,-6%,
CN(C)c1nc(N(C)C)n(Cc2c(Cl)cccc2Cl)n1,3.8,-1,-3,.,.,
Cc1cccc2nc(=S)n(C(=O)c3ccco3)n12,-0.2,1,-14,-18,-4%,
CCC(C)NC(=O)COc1ccccc1[N+](=O)[O-] (stereo not given),0.0,4,2,-30,2%,
Cc1cccc(N2CCN(C(=O)CCN3C(=O)C4C5C=CC(C5)C4C3=O)CC2C)c1 (stereo not given),-0.6,1,-7,.,-3%,
Clc1ccc(-c2csc(N3CCSCC3)n2)cc1,2.6,9,-9,-13,-3%,
CC(NC(=O)C(=O)NCc1cccs1)c1ccccc1 (stereo not given),0.7,.,6,.,.,
COc1ccccc1-c1ccc(SCc2ccccc2)nn1,13,22,4,.,-2%,
O=S(=O)(NCCN1CCOCC1)c1cc(Cl)c(Cl)cc1Cl,-2.5,.,-2,.,.,
CCC1(c2ccccc2)NC(=O)N(CC(=O)Nc2ccccc2C(=O)N2CCCCC2)C1=O (stereo not given),-2.2,.,-4,.,.,
CC(OC(=O)C1CC1C)C(=O)Nc1ncc(Cl)cc1Cl (stereo not given),1.4,.,-6,.,.,
N#CC1=C(N)OC2=C(CCc3ccccc32)C1c1ccccc1 (stereo not given),-11,-31,5,-7,4%,
CC(C)(C)c1ccc(C(=O)c2c[nH]c(C(=O)NCc3cccnc3)c2)cc1,2.6,2,3,-25,3%,
Brc1ccc(CSc2ncnc3nc[nH]c23)cc1,2.8,-36,0,-24,4%,
CC(=O)Nc1cccc(NC(C)=O)n1,-0.8,-3,1,-31,3%&3%,
C=CCc1c(C)nc2cc(-c3ccc(C)cc3)[nH]n2c1=O,-2.5,.,3,.,.,
O=C(COC(=O)c1cc([N+](=O)[O-])ccc1N1CCOCC1)Nc1c(Cl)cccc1C(F)(F)F,-1.6,.,-8,.,.,
CCN1CCN(c2cc(C)c3cc(NC(=O)c4cnccn4)ccc3n2)CC1,-6.2,13,-4,-4,2%,Arbovirus anti repeat=2
CC(=O)c1cc2ccc(O)cc2oc1=O,-361,.,2,.,3%,
CCOC(=O)CC(NC(=O)Cn1nnc(-c2ccccc2F)n1)c1ccccc1Cl (stereo not given),4.2,-2,-7,.,1%,
C=CCN1C(=O)CSc2ccc(C(=O)NCc3ccc(F)cc3)cc21,5.1,.,-7,.,.,

# As a short view, part of the list above:
SMILES,RecA intein inh,Arbovirus anti,Mtb betalactam,YopH inh,Mtb growth,others
CC(C)(C)C1CCC(=NNc2ncc(C(F)(F)F)cc2Cl)CC1 (stereo not given),-3.3,-20,.,-23,-1%,
Cn1c(NC(=S)Nc2ccccc2)nc2ccccc21,3.6,-6,97,-23,?,
CCCCCSc1cc(OC)c(CCN)cc1OC,-0.1,-30,-7,-24,2%,
COc1ccccc1NC(=O)Cn1c(C)cc(=O)c2cccc(OC)c21,-2.6,.,1,.,-3%,
Cc1ccc(NC(=O)COc2ccccc2[N+](=O)[O-])nc1,1.5,2,-12,.,1%,
COc1ccc(C2c3ccsc3CCN2C(=O)C(C)(C)C)cc1 (stereo not given),7.0,.,-17,.,2%,
CC1=NC2(CCCc3c2no[n+]3[O-])N(O)C1(C)C (stereo not given),-3.9,5,6,-10,-16%,Arbovirus anti repeat=-1
CCCOC(=O)c1ccc(NC(=O)c2nc3nc(C)cc(C)n3n2)cc1,5.0,-4,37,.,33%,
Cc1cc2nc3n(c2cc1C)CC1CC(C(=O)NCC2CC2)N(C)C31 (stereo not given),1.4,.,-7,.,-12%,
CC(=O)Nc1cc(-c2ccc(Cl)cc2)[nH]n1,0.2,-1,-4,.,2%,
CCCC1CCC(C(=O)Nn2cnc3ccccc3c2=O)CC1 (stereo not given),1.0,0,11,-38,-6%,
Cc1ccccc1OCC(=O)Nc1ccc(C(N)=O)cc1,1.1,5,-8,-25,9%,
CCCc1cc(=O)n2[nH]c(NCc3ccc(Cl)cc3Cl)nc2n1,-1.2,-9,3,-43,-7%,
Cc1cc(C(=O)Cn2nc(C(=O)O)c3ccccc3c2=O)c(C)n1-c1ccc(OC(F)F)cc1,1.4,3,41,.,-4%,
O=C(Nc1cccc(C(=O)N2CCN(c3ccccc3)CC2)c1)c1ccco1,1.9,.,-7,.,.,
CC(C)(C)NC(=O)C(c1ccncc1)N(C(=O)CNC(=O)c1ccco1)c1ccc2c(c1)OCO2 (stereo not given),9.2,5,7,-29,-7%,
O=C(COC(=O)c1ccc2c(c1)C(=O)N(Cc1ccncc1)C2=O)Nc1ccccc1[N+](=O)[O-],0.9,3,0,0,-6%,
COc1ccc(NC(=O)CSc2nnc(NC(=O)c3ccc(S(=O)(=O)N4CCOCC4)cc3)s2)cc1,-2.3,6,12,-10,-7%,
CC(=O)Nc1ccccc1-c1nc2ccc(C(=O)N3CCN(c4ccccc4)CC3)cc2[nH]c1=O,1.6,-3,-6,-22,-6%,
Cc1cccc(-n2c(O)c(C=NCc3cccnc3)c(=O)[nH]c2=O)c1C,1.7,4,-9,-30,2%,
Cc1nc(N2CCN(S(=O)(=O)c3ccccc3C#N)CC2)c2c(-c3cccs3)csc2n1,-2.8,0,11,.,4%,
Cc1nnc(NC(=O)c2ccc3ccccc3c2)s1,-0.3,.,-6,.,.,

# New compounds follow
SMILES,RecA intein inh,Arbovirus anti,Mtb betalactam,YopH inh,Mtb growth,others
Cc1ccc(C)c(CN2C(=O)C(C)Oc3ccc(C)cc32)c1 (stereo not given),0.2,-2,5,-2,4%,
Cc1ccccc1NC(=O)C1CC(=O)N(c2ccccc2F)C1 (stereo not given),5.0,4,2,-8,0%,
COC(=O)[C@H](Cc1ccccc1)NC(=O)c1cc(COc2c(F)cccc2F)on1,4.1,.,77,.,.,
Cc1ccc(NC(=O)COC(=O)C2CCC2)cc1S(=O)(=O)N1CCCCC1,-1.9,.,4,.,.,
COC(=O)C1CCN(C(=O)COc2ccc(Cl)cc2)CC1,-0.8,9,0,-10,-9%,
CC(O)CNC12CC3CC(CC(C3)C1)C2 (stereo not given),-2.7,5,4,.,-6%,
Cc1cc(NC(=O)c2coc(=O)c(Br)c2)ccc1C(C)C,-5.1,.,-1,.,-4%,
COC(=O)[C@@H]1C[C@H]1[C@@H](NP(=O)(c1ccccc1)c1ccccc1)c1ccccc1,-0.1,-9,-15,-15,-5%,
CCOc1ccc(N2C(=O)Cc3ccccc3C2=O)cc1,-2.5,.,90,.,.,
CC(C)(C)c1cc(C(=O)NCc2cc(F)cc3c2OCOC3)n(Cc2ccccc2)n1,8.9,.,-3,.,4%,
Cc1ccc(-n2ncc(Cl)c2C(=O)NCc2ccccc2)cc1,2.6,.,0,.,.,
COc1ccc(NC(=O)C(=O)NCCC2=CCCCC2)c(OC)c1,-0.3,-3,3,-23,5%,
Cc1ccc(S(=O)(=O)NCCC2(C(C)C)CCOC(C)(C)C2)cc1 (stereo not given),0.6,8,-9,4,3%,
NC(=O)C1CCCN(C(=O)c2ccc3nc(Cc4cccc(Cl)c4)oc3c2)C1 (stereo not given),-1.0,.,-5,.,.,
N=C1/C(=C/c2ccc(-c3cccc(C(=O)O)c3)o2)C(=O)N=C2SC=C(c3ccccc3)N12,4.0,42*,16,.,0%,
Cc1ccc(C(=O)NC(C)c2ccc(-n3ccnc3)cc2)cc1S(=O)(=O)N1CCOCC1 (stereo not given),3.8,.,0,.,.,
CCO[C@@H]1OC(C(=O)Nc2ccccc2)=C[C@H](c2ccc(Br)cc2)[C@H]1CCCO,8.3,-20,6,.,7%,
COc1cccc(/C=N/NC(=O)CCn2nnc3ccccc32)c1,-1.0,-14,-5,-15,33%,
Cc1cc(C)n(S(=O)(=O)c2cccc(Cl)c2Cl)n1,0.4,-2,6,-26,-4%,Arbovirus anti repeat=4
Cc1ccc(-c2nnn(CCOc3cccc(Br)c3)n2)cc1,-1.2,-12,3,-40,9%,
COc1ccc(NC(=O)CN(C)C(=O)CC2CCCCC2)cc1,-3.1,.,-7,.,.,
CCOC(=O)C(C)Oc1cccc2c(=O)n(CC(=O)NCc3ccc(F)cc3)ccc12 (stereo not given),-0.8,.,1,.,-1%,
COc1ccccc1C1c2[nH]c3ccccc3c2C[C@H]2C(=O)N(C3CCN(Cc4ccccc4)CC3)CC(=O)N12 (stereo not given in full),2.0,.,99,.,.,
Cc1cc(C)cc(OCC(=O)Nc2nc(-c3cccnc3)cs2)c1,-4.5,.,-6,.,.,
O=C(NCc1cccs1)c1ccc(Br)o1,5.9,-4,1,-21,6%,
O=C(NCCCN1CCOCC1)c1ccc2c(=O)n(Cc3ccc(Cl)cc3)c(=S)[nH]c2c1,-0.2,.,2,.,.,

# These rows are one share of the data; count on the stated rates, not on these rows.
